Bioassay records: PubChem BioAssay, several laboratories
Beta apoptosis: beta cell apoptosis inhibition. 300,000 tested, 0.8% active. protection from apoptosis, % (test concentration not listed). INS-1E cytokine-induced death, ATP luminescence, 48 h; percent of positive-control rescue, neutral wells zero;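 active means all replicates at 75% or more, or half of them and the mean; inconclusive means half reach 75% but not the mean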;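 further: 0% = cytokine-treated negative control wells and 100% = positive control rescue; higher means more ATP so stronger rescue from cytokine killing; wells of about 40 µL received 100 nL stock; the first replicate is given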
MLL AF4-AF9 inh: blocks AF4 peptide binding to human AF9 | P42568 | AlphaScreen, biotin-AF4 peptide binding to FLAG-AF9 | inhibition, % at 10 µM | 350,000 tested, 0.47% active | AID 651704;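 active means every replicate reaching a set inhibition limit, whatever the replicate mean, cut at about 25% in these data; inconclusive means mean inhibition reaches that limit but some replicates miss it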;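 further: 0% = plate neutral control median and 100% = total signal loss; the record names both 10 and 1 µM as test concentration; the first replicate is given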
Calb FLC: affects C. albicans growth with fluconazole | growth inhibition, % (concentration not given with the values) | C. albicans CaCi-2 (fluconazole-resistant clinical isolate) + fluconazole, Alamar Blue growth, 48 h | 300,000 tested, 0.57% active;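 active means most replicates above 75%; inconclusive means exactly half above 75%; inactive means most below 75%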;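 further: all wells also contain fluconazole at 8 µg/ml as a sub-toxic cotreatment; 0% = median of DMSO wells and 100% = median of geldanamycin control wells; wells of about 8 µL received 7.5 nL stock; the first replicate is given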
T cruzi inh: blocks replication of Trypanosoma cruzi | T. cruzi beta-gal in NIH3T3, luminescence, 90 h | inhibition, % (no concentration beside the values) | 300,000 tested, 1.4% active | AID 1885;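 active means mean inhibition across valid replicates above about 55%, limit read from the data; inconclusive means mean below that limit but half or more replicates reach it; inactive means mean below it, under half of replicates reach it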;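 further: signal also drops with host cell toxicity which is not excluded here; 0% = plate median of DMSO wells and 100% = zero luminescence signal; higher percent means less beta-gal luminescence so fewer parasites; stock transfer was 50 nL into about 50 µL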
A1 inh: inhibitors of the anti-apoptotic protein A1, read as caspase activation. 330,000 tested, 0.066% active. MEF A1-2A-BIM cells, Caspase-Glo 3/7 luminescence, 3 h; percent of clofoctol response, vehicle zero. caspase activation, % (no concentration beside the values);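 active means over half of replicate activation scores above 10%, or exactly half above 10 with the replicate mean above 10; inconclusive means replicate mean below 10 yet half the replicates above 10; inactive means over half of replicates below 10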;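 further: wells of about 30 µL received 50 nL stock; many hits fall short of the cut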
LANA-H2A inh: blocks KSHV LANA binding to histone H2A/H2B | Q9QR71 | cell-free LANA-H2A/H2B peptide, fluorescence polarization | inhibition, % (test concentration not listed) | 320,000 tested, 0.6% active; in the data active means inhibition mostly above about 10%, no sharp cut-off; inactive means mostly below about 6.7%;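 further: stock transfer was 7.5 nL into about 10 µL; 0% = median of vehicle wells and 100% = median of positive control wells; one replicate is shown; the record names a cut of 25% in any replicate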
Target sequence (Q9QR71 whole entry, looked up): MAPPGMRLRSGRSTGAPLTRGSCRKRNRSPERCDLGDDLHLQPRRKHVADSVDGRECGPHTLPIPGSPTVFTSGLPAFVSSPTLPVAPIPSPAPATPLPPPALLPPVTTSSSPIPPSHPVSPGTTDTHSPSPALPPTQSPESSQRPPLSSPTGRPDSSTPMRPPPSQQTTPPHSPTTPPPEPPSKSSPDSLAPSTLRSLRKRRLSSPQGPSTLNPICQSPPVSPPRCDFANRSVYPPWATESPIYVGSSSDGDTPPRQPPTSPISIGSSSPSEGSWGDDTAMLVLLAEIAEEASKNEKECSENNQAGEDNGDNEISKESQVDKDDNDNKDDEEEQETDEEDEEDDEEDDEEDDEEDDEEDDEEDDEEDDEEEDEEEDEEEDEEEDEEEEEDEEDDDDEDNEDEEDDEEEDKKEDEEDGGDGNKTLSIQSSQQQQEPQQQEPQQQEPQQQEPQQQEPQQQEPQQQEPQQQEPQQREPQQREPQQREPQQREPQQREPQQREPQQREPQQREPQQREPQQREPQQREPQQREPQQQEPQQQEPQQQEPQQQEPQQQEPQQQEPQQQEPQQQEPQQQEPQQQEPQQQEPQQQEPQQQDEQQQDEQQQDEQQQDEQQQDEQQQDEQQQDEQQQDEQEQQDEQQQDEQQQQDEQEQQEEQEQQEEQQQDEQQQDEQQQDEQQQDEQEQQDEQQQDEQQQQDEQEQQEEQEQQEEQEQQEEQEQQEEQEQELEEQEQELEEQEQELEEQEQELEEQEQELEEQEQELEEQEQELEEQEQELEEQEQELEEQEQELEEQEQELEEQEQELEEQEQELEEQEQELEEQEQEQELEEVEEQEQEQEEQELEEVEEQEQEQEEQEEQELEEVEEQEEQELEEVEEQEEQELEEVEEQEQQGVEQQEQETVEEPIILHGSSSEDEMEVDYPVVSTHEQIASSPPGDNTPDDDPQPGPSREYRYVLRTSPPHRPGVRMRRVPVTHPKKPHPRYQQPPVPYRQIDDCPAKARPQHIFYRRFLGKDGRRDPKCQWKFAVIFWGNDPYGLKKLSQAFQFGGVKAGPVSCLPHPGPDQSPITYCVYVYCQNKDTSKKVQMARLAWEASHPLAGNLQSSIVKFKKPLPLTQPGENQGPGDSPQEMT
RanGTP-Impb inh: inhibitors of RanGTP-importin-beta interaction, primary screen, biochemical, FRET, CFP-Ran, YFP-importin-beta, homogeneous | cell-free CFP-Ran/YFP-importin-beta FRET ratio | inhibition, % (concentration not given with the values) | 300,000 tested, 1.1% active;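 active means most replicates above 15%; inconclusive means exactly half above 15%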;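 further: 0% = DMSO wells and 100% = Ran loaded with GDP instead of GTP; wells of about 40 µL received 100 nL stock; the first replicate is given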
Vif A3G: inhibitors of Vif binding to APOBEC3G peptide, primary screen, biochemical, TR-FRET, GST-Vif 1-94, biotin-A3G peptide, dose response retest (AID 1117319); 260,000 tested, 0.57% active; one-dose inhibition, %; IC50 in µM for titrated hits; TR-FRET GST-Vif / biotin-A3G peptide binding; higher % means a stronger effect; test concentration not given here; strong numbers were not always called active;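 active means above the screen mean plus three standard deviations and confirmed in dose response; inconclusive means results disagree or hit not tested in dose response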;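 further: Vif residues 1-94 fused to GST binding biotinylated APOBEC3G peptide 110-148; 0% = full assay without inhibitor and 100% = GST in place of GST-Vif; retest series ran down from 100 µM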
* marks the source's active call; other numbers are inactive results; ? = inconclusive; nt = not tested or not shown; & = joins results of further samples.

SMILES	Beta apoptosis	MLL AF4-AF9 inh	Calb FLC	T cruzi inh	A1 inh	LANA-H2A inh	RanGTP-Impb inh	Vif A3G
CCCCN(C(=O)C1CCCC1)C1CCS(=O)(=O)C1 (stereo not given)	nt	-1.0	-2	-6	nt	nt	1.4	5%
COC(=O)CCn1nnc(-c2ccc(C(C)C)cc2)n1	-16	nt	-27	-15	-0.7	-2.4	2.0	5%
Cn1cccc1Cc1nnc(SCC(=O)Nc2ccc(F)cc2)n1CCc1ccccc1	-6	6.6	-7	12	0.5	-2.5	-1.5	23%&2%
Clc1ccc(SCCn2cncn2)cc1	-1	nt	-3	12	-0.8	-1.6	-1.3	2%
CN(CC(=O)NCc1ccccn1)S(=O)(=O)c1cc(Cl)ccc1Cl	nt	-0.2	0	-4	-0.4	0.6	-1.3	-3%
CC1CC(C)CN(C(=O)COC(=O)c2ccc3c(c2)C(=O)N(Cc2ccco2)C3=O)C1 (stereo not given)	-13	-1.2	nt	nt	0.9	-6.2	nt	-14%
O=C1CN(C(=O)c2ccccn2)c2ccccc2N1	0	nt	2	-1	0.4	6.3	-3.2	5%
COc1ccccc1NC(=O)C1CCN(C(=O)C2CC(=O)N(c3ccc(C)cc3)C2)CC1 (stereo not given)	4	-0.9	8	2	-0.8	-5.6	-0.3	-3%
COCC(C)n1c(C)cc(C(=O)CN2C(=O)NC3(CCCCC3C)C2=O)c1C (stereo not given)	-2	nt	1	11	-0.6	0.3	-0.3	-4%
O=C(COC(=O)c1ccc(Cl)nc1)NCCC1=CCCCC1	-5	-4.3	-10	-10	1.9	-1.6	4.5	-3%

Five entries out of the list above, ordered by the number in LANA-H2A inh, ascending.
SMILES	MLL AF4-AF9 inh	LANA-H2A inh	RanGTP-Impb inh	Vif A3G
CC1CC(C)CN(C(=O)COC(=O)c2ccc3c(c2)C(=O)N(Cc2ccco2)C3=O)C1 (stereo not given)	-1.2	-6.2	nt	-14%
Cn1cccc1Cc1nnc(SCC(=O)Nc2ccc(F)cc2)n1CCc1ccccc1	6.6	-2.5	-1.5	23%&2%
Clc1ccc(SCCn2cncn2)cc1	nt	-1.6	-1.3	2%
COCC(C)n1c(C)cc(C(=O)CN2C(=O)NC3(CCCCC3C)C2=O)c1C (stereo not given)	nt	0.3	-0.3	-4%
O=C1CN(C(=O)c2ccccn2)c2ccccc2N1	nt	6.3	-3.2	5%

The listing continues.
SMILES	Beta apoptosis	MLL AF4-AF9 inh	Calb FLC	T cruzi inh	A1 inh	LANA-H2A inh	RanGTP-Impb inh	Vif A3G
CCc1ccc(NC(=O)CCc2nc3cccnc3n2Cc2ccc(OC)cc2)cc1	-2	nt	4	15	-0.3	7.4	-2.2	0%
Cc1cc(-c2cccc([N+](=O)[O-])c2)nc2ccccc12	12	6.0	-2	-21	0.4	2.3	-1.7	23%
CCCCOc1cc(C(=O)NCCN(CC)CC)c2ccccc2n1	5&7	-2.6&1.6	nt	14&13	-0.7&-0.4	-3.0&-13	-1.1&-3.2	5%
Cc1sc2cc(-c3cccc([N+](=O)[O-])c3)c(-c3cccc([N+](=O)[O-])c3)c[n+]2c1C	1	nt	-24	-6	0.2	-1.5	0.6	nt
CN(C)c1ccc(C(=O)NCc2ccc3c(c2)OCO3)cc1	-4	-2.3	1	-6	0.1	1.6	1.1	nt
CCN(CC)CC(C)CNC(=O)C1(O)c2ccccc2NC(=O)N1c1ccc(Cl)c(Cl)c1 (stereo not given)	-5	-1.3	-3	-12	0.1	0.3	-4.4	-7%
COC(=O)c1ccccc1NC(=O)Nc1ccc(C(=O)N2CCCC2)cc1	9	nt	27	-17	-0.3	-2.0	-1.5	-6%
CCc1nc(SCC(=O)c2ccccc2)c2ccccc2n1	-12	-0.2	4	-10	-1.0	5.4	1.8	nt
CCOC(=O)c1sc(NCc2ccco2)c(-c2nc3ccccc3s2)c1N	9	nt	-2	19	0.0	-9.0	0.3	-3%
CCOC(=O)CSc1nc(-c2ccncc2)ccc1C#N	-3	nt	?	10	-0.1	1.8	?	-3%
COC(=O)c1ccc(OCC(=O)c2ccccc2)cc1	0	nt	-1	-18	-15	-0.3	0.9	3%
CCCCOC(=O)Cn1c(=O)n(CC(=O)OCCCC)c2ccccc21	-4	nt	-2	9	0.4	0.3	7.7	2%
CC(=O)c1ccc(OCc2cc(C(=O)N(C)Cc3ccon3)no2)cc1	-1	-2.7	32	11	-0.2	0.2	2.1	nt
O=C(NNC(=O)C1CCCN(c2ncccn2)C1)c1ccncc1 (stereo not given)	2	nt	2	-12	-0.4	12*	-1.7	nt
OCCN1CCN(c2cc(C(F)(F)F)nc3c(F)cccc23)CC1	0	-5.3	3	nt	-0.8	0.3	-1.4	4%
Cc1ccc(OCC(=O)N(Cc2ccccc2)C2CCS(=O)(=O)C2)c([N+](=O)[O-])n1 (stereo not given)	-2	-5.4	4	-1	-0.9	5.5	1.3	nt
COc1ccc(Nc2nc(NCCCN3CCOCC3)nc(N)c2[N+](=O)[O-])cc1	-14	6.1	14	2	-1.0	-0.6	-7.3	5%
COc1ccc(-c2cn(-c3ccccc3)c(=S)[nH]2)cc1OC	-5	-0.3	5	4	-1.4	4.0	3.5	6%
Cc1ccc(NC(=O)COC(=O)c2cccnc2)c(C)c1	0	0.5	3	-23	1.9	0.7	0.5	3%
Cc1cc(C)c(-c2csc(NC(=O)C3=COCCO3)n2)cc1C	24	-0.9	0	17	1.1	2.0	-0.1	-6%
Cc1ccc(S(=O)(=O)NNC(=O)c2sc3nc(C)cc(C)c3c2-n2cccc2)cc1	0	nt	0	-1	0.9	5.2	0.6	3%
COc1ccccc1Nc1nc(-c2sc(N)nc2C)cs1	-1	0.6	10	-6	0.3	-1.2	1.9	?

3 entries drawn at random from those above, as already listed:
SMILES	Beta apoptosis	MLL AF4-AF9 inh	Calb FLC	T cruzi inh	A1 inh	LANA-H2A inh	RanGTP-Impb inh	Vif A3G
COc1ccc(Nc2nc(NCCCN3CCOCC3)nc(N)c2[N+](=O)[O-])cc1	-14	6.1	14	2	-1.0	-0.6	-7.3	5%
CCCCOc1cc(C(=O)NCCN(CC)CC)c2ccccc2n1	5&7	-2.6&1.6	nt	14&13	-0.7&-0.4	-3.0&-13	-1.1&-3.2	5%
CN(CC(=O)NCc1ccccn1)S(=O)(=O)c1cc(Cl)ccc1Cl	nt	-0.2	0	-4	-0.4	0.6	-1.3	-3%

Printed as active in LANA-H2A inh (from the list above):
compound | MLL AF4-AF9 inh | LANA-H2A inh | RanGTP-Impb inh | Vif A3G
O=C(NNC(=O)C1CCCN(c2ncccn2)C1)c1ccncc1 (stereo not given) | nt | 12* | -1.7 | nt

3 compounds from above, sorted by count of non-hydrogen atoms, highest first:
SMILES	Beta apoptosis	MLL AF4-AF9 inh	Calb FLC	T cruzi inh	A1 inh	LANA-H2A inh	RanGTP-Impb inh	Vif A3G
Cc1ccc(OCC(=O)N(Cc2ccccc2)C2CCS(=O)(=O)C2)c([N+](=O)[O-])n1 (stereo not given)	-2	-5.4	4	-1	-0.9	5.5	1.3	nt
OCCN1CCN(c2cc(C(F)(F)F)nc3c(F)cccc23)CC1	0	-5.3	3	nt	-0.8	0.3	-1.4	4%
COc1ccccc1Nc1nc(-c2sc(N)nc2C)cs1	-1	0.6	10	-6	0.3	-1.2	1.9	?
